B2AR ag – activates human beta-2 adrenergic receptor causing internalization; P07550; Am2.2-beta2AR cells, FAP receptor internalization, flow cytometry; reference of the scale not given here; response, % (no concentration beside the values); 0.43% of 340,000 active; AID 504454;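 active = response above a set limit, near 3 SD of response in nonfluorescent compounds, cut at about 42% in these data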;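 also: stock transfer was 100 nL into about 11 µL; a reference agonist was the positive control; negative values mostly stem from fluorescent compounds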
Target sequence (P07550 whole entry, looked up): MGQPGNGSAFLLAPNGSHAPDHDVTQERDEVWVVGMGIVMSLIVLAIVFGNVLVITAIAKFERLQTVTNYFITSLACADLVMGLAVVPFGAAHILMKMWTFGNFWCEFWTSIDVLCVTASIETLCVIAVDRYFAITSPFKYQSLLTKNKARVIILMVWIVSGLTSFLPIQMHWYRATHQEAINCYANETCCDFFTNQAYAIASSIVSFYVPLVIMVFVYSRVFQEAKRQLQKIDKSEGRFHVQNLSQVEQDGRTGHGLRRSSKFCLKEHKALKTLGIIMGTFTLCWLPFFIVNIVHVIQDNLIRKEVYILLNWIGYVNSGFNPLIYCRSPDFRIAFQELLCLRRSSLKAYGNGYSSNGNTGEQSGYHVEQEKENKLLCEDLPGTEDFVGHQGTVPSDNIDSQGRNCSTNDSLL
HNF4A DNA FP – change in binding of human HNF4 alpha to DNA | 0.3% of 360,000 active | activity change, % at 10 µM | HNF4a-FITC DNA binding, fluorescence polarization, 1 h; in the data active = activity change above about 30%, passing the limit was not always enough;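 also: controls were the assay level and a saturating level of protein; the project sought stronger binding though the title names inhibitors; some compounds called inactive have numbers as strong as hits; positive values seem to mean higher polarization but the record does not say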
ALR H2O2 inh – blocks human ALR sulfhydryl oxidase activity; P55789; purified ALR, DTT oxidation, H2O2 HRP-luminol luminescence; inhibition, % (test concentration not listed); 3.8% of 290,000 active;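 active = mean and each replicate at 75% or more; inconclusive = only one of the two met; inactive = neither met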;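 also: stock transfer was 7.5 nL into about 7.5 µL; 0% = neutral wells and 100% = wells with inactivated enzyme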
FGF22 binding – binders of recombinant human FGF22 by thermal shift | 1.5% of 340,000 active | Q9HCT0 | SYPRO orange fluorescence; percent of sucrose octasulfate shift, DMSO zero | calls only at 9.99 µM;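 active = melting point raised past a set limit in the mean and every replicate; inconclusive = no clear call; three in four hits are not shown here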
Target sequence (Q9HCT0 whole entry, looked up): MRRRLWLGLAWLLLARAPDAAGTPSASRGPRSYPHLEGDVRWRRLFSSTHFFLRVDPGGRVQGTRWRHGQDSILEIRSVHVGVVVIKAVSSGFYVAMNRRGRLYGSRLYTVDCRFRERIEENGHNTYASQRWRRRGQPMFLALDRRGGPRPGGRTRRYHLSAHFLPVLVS
Ecoli growth – E. coli growth inhibition. Escherichia coli growth, OD600, 23 h; hits give low values. OD600 absorbance (no concentration beside the values). 0.21% of 330,000 active. AID 1053175;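 active = OD600 absorbance below the run mean of sample wells minus 3.6 SD, in any replicate, cut at about 0.56 in these data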;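 also: stock transfer was 300 nL into about 60 µL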
rRNA inh HTS – inhibitors of bacterial rRNA selective over humanized ribosomes; GFP signal change (wild-type ribosome), % (concentration not given with the values); E. coli WT GFP vs humanized-ribosome RFP mutants, fluorescence, 24 h; hits give low values; DMSO median 0, no signal -100; 1.6% of 350,000 active;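 active = significant combined selectivity score with lowered wild-type GFP, culture density cut under 30%, mutant RFP and density less affected; inactive = any of these conditions unmet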; also: one replicate is shown; some compounds called inactive have numbers as strong as hits
UCH37 DUB inh – blocks the human deubiquitinase UCH37. Q9Y5K5. purified proteasome/UCH37, Ub-AMC cleavage fluorescence. inhibition, % (test concentration not listed). 0.33% of 330,000 active. AID 588478;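 active = mean of two replicates above 20%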;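 also: 0% = compound-free wells with enzyme and 100% = wells lacking proteasome; stock transfer was 100 nL into about 20 µL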
Target sequence (Q9Y5K5 whole entry, looked up): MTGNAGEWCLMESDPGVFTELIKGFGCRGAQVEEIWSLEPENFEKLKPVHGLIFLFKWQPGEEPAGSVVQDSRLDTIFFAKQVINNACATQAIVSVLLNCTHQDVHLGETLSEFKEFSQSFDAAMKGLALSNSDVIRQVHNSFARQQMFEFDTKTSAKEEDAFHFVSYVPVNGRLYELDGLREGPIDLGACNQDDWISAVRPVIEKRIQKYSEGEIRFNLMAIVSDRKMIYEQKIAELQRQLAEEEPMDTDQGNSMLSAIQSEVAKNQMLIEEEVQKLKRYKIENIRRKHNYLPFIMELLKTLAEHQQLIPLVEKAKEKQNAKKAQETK
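System: Proteasome-associated human UCH37 deubiquitinase; Input: 0.15 nM proteasome in added enzyme buffer; Also added: Ub-AMC substrate from 1 µM stock; Incubation: 30 min compound-proteasome preincubation then 25 min substrate reaction, room temperature; Detection: fluorescence, ex 355 nm, em 460 nm; Read-out: % inhibition of Ub-AMC cleavage fluorescence; Benchmarks: no-proteasome and no-compound wells.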
rRNA inh HTS OD600 – recorded beside rRNA inh HTS, whose call it bears; OD600 change, %; measured here: OD600 growth;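 optical density of the mix in the first replicate; 0 = DMSO median and -100 = no signal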
rRNA inh HTS RFP – further read-out of rRNA inh HTS, marked with its call; RFP signal change, %; measured here: RFP humanized mutant strains;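 first replicate; 0 = DMSO median and -100 = no signal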
An asterisk follows results filed as active; i = inactive; ? = inconclusive; nt = not tested or not shown; + = active, no number; & = joins results of further samples.

SMILES	B2AR ag	HNF4A DNA FP	ALR H2O2 inh	FGF22 binding	Ecoli growth	rRNA inh HTS	rRNA inh HTS OD600	rRNA inh HTS RFP	UCH37 DUB inh
O[C@@H]1CCCN2CCc3c([nH]c4ccccc34)[C@H]12	3	2.1	1	i	0.74	11	5	4.5	-1.8
COc1ccc(C(c2nnnn2C2CCCCC2)N2CCC3(CC2)C(=O)NCN3c2ccccc2)cc1 (centres undefined)	nt	-3.7	nt	i	nt	-2	5	-0.5	nt
COC(=O)Cn1cc(C=C2C(=O)N(C)C(=O)N(C)C2=O)c2ccccc21	nt	nt	4	i	0.65	11	12	2.3	0.3
COc1ccc(NC(=O)c2c(C)nn(Cc3ccccc3Cl)c2Cl)cc1Cl	-16	0.4	-1	i	0.69	1	16	1.5	-0.1
COc1cccc(CNC2CN3CCC2CC3)c1OC (centres undefined)	-4	-4.4	9	nt	0.65	nt	nt	nt	2.3
C[C@@H]1CN([C@@H](C)CO)C(=O)CCCn2nncc2CO[C@H]1CN(C)C(=O)Oc1ccc2ccccc2c1	nt	-0.9	nt	i	nt	0&0	-8&-4	1.4&0.9	nt
COC1=C(OC)[C@]23CCc4ccc(OC)c(OC)c4[C@]2(CCN3C)CC1=O	14	-1.0	-4	i	0.69	-4	-1	-5.0	0.3
CC(O)C1C=CC=CC(=O)OC2CC3OC4C5OC5(C)C(O)CC4(COC(=O)C(O)C(C)CCO1)C2(C)C31CO1 (centres undefined)	-3	2.8	nt	i	nt	11	5	2.1	nt
NC(=O)c1c(Br)n(C2OC(CO)C(O)C2O)c2ncnc(N)c12 (centres undefined)	6	0.5	nt	i	nt	10	25	-3.4	nt
CCOP(=O)(OCC)C(NC(=O)Cc1ccccc1)C(Cl)(Cl)Cl (centres undefined)	-3	0.3	0	i	0.65	7	4	-2.8	-1.9
CCCCN1C(=O)NC(=O)C2(Cc3ccccc3N3CCOCC32)C1=O (centres undefined)	1	-3.6	17	nt	0.68	nt	nt	nt	4.7
COc1ccc(CCC(=O)N2C[C@H]3C[C@@H](C2)c2cccc(=O)n2C3)cc1	-7	0.6	-3	i	0.72	nt	nt	nt	-0.1
O=C1CN=C(c2ccccc2)c2cc(Cl)ccc2N1	-6	6.5	nt	i	0.7	-1	-7	0.9	-0.1
O=c1cccc2n1CC1CC2CN(C(c2cccc(F)c2)c2sc3ncnn3c2O)C1 (centres undefined)	4	1.4	4	i	0.73	3	15	1.1	2.7
CC12CN3CC(C)(CN(C1)C3c1ccncc1)C2=O (centres undefined)	3	1.7	31	nt	0.72	nt	nt	nt	-0.2
CN1C(=O)NC(=O)/C(=C\c2ccc([N+](=O)[O-])o2)C1=O	3	-45	-33	nt	nt	nt	nt	nt	17
CCCNC(=O)N1[C@H]2CC[C@@H]1C(C(=O)OC)=C(c1ccc(OC(F)(F)F)cc1)C2	-13	-2.4	-1	i	nt	-12	-32	-14	0.2
CC(C)COC(=O)c1ccccc1C(=O)OCC(C)C	1	0.1	-23	i	0.77	17	16	14	0.8
COC(=O)[C@H]1C[C@@H]1[C@H](NP(=O)(c1ccccc1)c1ccccc1)c1ccccc1	-6	-1.4	-6	+	nt	11	6	0.7	4.9
OC1(c2ccc(F)cc2)CCNC1 (centres undefined)	2	4.0	-3	nt	0.66	nt	nt	nt	2.7
C[C@@H]1CN([C@H](C)CO)C(=O)CCCn2nncc2CO[C@H]1CN(C)C(=O)Oc1ccccc1	nt	-8.4	nt	i	nt	0&-2	-8&-5	-0.6&-4.0	nt
COc1ccc(N2C(=O)NC(=O)/C(=C\c3cn(CC(=O)N4CCOCC4)c4ccccc34)C2=O)c(OC)c1	15	2.0	12	i	0.74	7	4	-1.4	5.2
CN1CC(C(=O)c2ccccc2)C(c2ccccc2)C1 (centres undefined)	-4	-1.3	-2	i	0.7	6	1	-3.9	3.1
COC(=O)C1=C(c2cccc(C#N)c2)C[C@@H]2CC[C@H]1N2C(=O)NC1Cc2ccccc2C1	9	-1.7	-8	i	nt	-6	-8	-14	3.8
Cc1ccc2c(c1)CC1(CN2C)C(=O)NC(=O)N(CCC2=CCCCC2)C1=O (centres undefined)	2	1.5	nt	nt	0.71	nt	nt	nt	35*
COc1cccc(-n2c(O)c(C=Nc3c(C)n(C)n(-c4ccccc4)c3=O)c(=O)[nH]c2=O)c1	1	2.3	-5	i	nt	8	7	0.7	nt
C=CCCC1(C2=CCCCC2)C(=O)NC(=O)NC1=O	-3	-3.7	nt	i	nt	2	0	-1.9	nt
COC(=O)C1=C(c2ccc(Cl)c(C(F)(F)F)c2)C[C@@H]2CC[C@H]1N2C	-1	2.5	-9	i	nt	1	4	-1.1	1.2
CNC(=S)N1CCn2cccc2C1c1cccnc1 (centres undefined)	-8	0.8	-2	i	0.7	4	9	-4.5	-0.1
COC(=O)C[C@H]1CC[C@H]2NC[C@@H](O)COC[C@@H]2O1	nt	-1.0	nt	i	nt	8&10	3&18	-3.5&0.8	nt
Cc1ccccc1Cc1c(C)nc2nc(SCC(=O)N3CCC4(CC3)OCCO4)nn2c1C	3	-2.7	-2	nt	0.71	nt	nt	nt	4.0
Nc1c([N+](=O)[O-])cc(F)c(N2CCNCC2)c1Br	6	1.2	14	i	0.68	10	4	1.5	6.7
CCN1C[C@]2(COC)CC[C@H](OC)[C@@]34C1[C@]1(OCO[C@@]15C[C@H](OC)[C@H]1C[C@@H]3[C@@H]5[C@H]1OC)[C@@H](O)[C@H]24	-1	-3.0	-3	i	nt	nt	nt	nt	1.7
CC(C)(C)P(=O)(c1ccncc1)N1CCCC1 (centres undefined)	-8	-4.1	-4	i	0.66	9	7	-0.9	0.1
C#CC[N+]1(C)C2CCC1CC(O)C2 (centres undefined)	3	4.2	-4	i	0.7	14	9	1.9	3.8
Cc1noc(C)c1COc1ccc(C(=O)NCC2(N(C)C)CCCCC2)cc1	nt	0.2	nt	i	nt	2	9	-3.3	nt
O=S(=O)(c1ccc(Cl)cc1)N1CCCC1c1cccnc1 (centres undefined)	-5	4.2	1	i	0.7	-26	-5	-0.6	3.3
Cc1ccc(C(=O)N2CC2C)cc1 (centres undefined)	2	2.7	nt	i	0.66	2	13	-0.7	0.6
c1ccc2c(N3CCNCC3)cccc2c1	1	5.6	-48	i	0.66	nt	nt	nt	3.8
CCOC(=O)CNC(=S)N1CC2C[C@@H](C1)Cn1c2cccc1=O	-8	-0.6	-33	i	0.68	4	6	-0.3	1.9

A different layout for some results above:
| compound | B2AR ag | HNF4A DNA FP | ALR H2O2 inh | FGF22 binding | Ecoli growth | rRNA inh HTS | rRNA inh HTS OD600 | rRNA inh HTS RFP | UCH37 DUB inh |
| --- | --- | --- | --- | --- | --- | --- | --- | --- | --- |
| C#CC[N+]1(C)C2CCC1CC(O)C2 (centres undefined) | 3 | 4.2 | -4 | i | 0.7 | 14 | 9 | 1.9 | 3.8 |
| Cc1noc(C)c1COc1ccc(C(=O)NCC2(N(C)C)CCCCC2)cc1 | nt | 0.2 | nt | i | nt | 2 | 9 | -3.3 | nt |
| O=S(=O)(c1ccc(Cl)cc1)N1CCCC1c1cccnc1 (centres undefined) | -5 | 4.2 | 1 | i | 0.7 | -26 | -5 | -0.6 | 3.3 |
| Cc1ccc(C(=O)N2CC2C)cc1 (centres undefined) | 2 | 2.7 | nt | i | 0.66 | 2 | 13 | -0.7 | 0.6 |

Next entries
SMILES	B2AR ag	HNF4A DNA FP	ALR H2O2 inh	FGF22 binding	Ecoli growth	rRNA inh HTS	rRNA inh HTS OD600	rRNA inh HTS RFP	UCH37 DUB inh
CCOc1ccc(N=Cc2c(O)n(-c3cc(C)cc(C)c3)c(=O)[nH]c2=O)cc1	0	7.4	2	i	0.68	11	7	1.6	-54
CCOC(=O)C(O)(c1ccc(N)c(OC)c1)C(F)(F)F (centres undefined)	-3	-1.5	nt	nt	0.7	nt	nt	nt	3.0
CSCCC(NC(=O)CCC(=O)OC1CC[C@H]2[C@@H]3CC[C@H]4CC(=O)CC[C@]4(C)[C@H]3CC[C@]12C)C(=O)O (some centres undefined)	-4	-0.5	-2	i	0.66	-24*	-19*	-8.3*	1.1
CCN1C(=O)C(=Cc2cc(C)n(C3CC3)c2C)C(=O)N(CC)C1=S	4	25	?	nt	0.72	nt	nt	nt	2.6
Cc1cc(OCC(=O)N2C[C@H]3C[C@@H](C2)c2cccc(=O)n2C3)c2c(C)c(C)c(=O)oc2c1	-3	0.8	-6	i	0.75	0	22	15	-25
O=C1/C(=C/c2ccc3c(c2)OCO3)N2CCC1CC2	-4	2.4	3	i	0.7	14	14	-6.6	5.7
Cc1ccc(S(=O)(=O)N2CCCC2c2cccnc2)cc1 (centres undefined)	4	-1.2	-6	i	0.69	7	4	-0.5	3.5
Cn1cc([C@@H]2C[C@H]3CN(Cc4cccc(Cl)c4)C(=O)[C@]34CCCN24)c2ccccc21	0	25	-22	nt	0.68	nt	nt	nt	5.4
O=c1c2ccccc2nc(N2CCCC2)n1-c1ccccc1	-9	2.1	-5	i	0.73	-2	1	0.1	-109
CCC1CN1P(=O)(N1CCCC1)N1CC1CC (centres undefined)	-6	-3.1	nt	i	0.65	15	9	0.6	2.9
Cc1c2cnn(CC(=O)N3CCC4(CC3)OCCO4)c(=O)c2c(C)n1Cc1ccccc1F	-6	0.0	1	nt	0.7	nt	nt	nt	-1.4
CC1CC2CC(=O)CCC2(C)C2CCC3(C)C(O)CCC3C12 (centres undefined)	nt	-0.9	nt	i	nt	-18	-26	-4.3	nt
Clc1ccc(OCC#CCN2CCCC2)cc1	10	4.6	-2	i	0.66	14	14	1.7	5.0
Cc1c(C(=O)C(=O)N2CCOCC2)c2ccccc2n1Cc1ccccc1	-3	2.6	24	i	0.68	-2	2	1.0	9.0
CCCOC(=O)C1C2CCC(O2)C1C(=O)O (centres undefined)	2	-6.2	nt	i	0.69	5	11	-3.3	2.6
COC(=O)c1c(C)[nH]c(C(=O)C(Cc2ccccc2)N(C)C)c1C (centres undefined)	-1	-1.2	3	nt	0.71	nt	nt	nt	2.6
Cc1nc2ccccn2c1P(=S)(c1ccccc1)c1ccccc1	nt	-1.3	nt	nt	nt	-34	-65	-11	nt
Cn1cc([N+](=O)[O-])c(C(=O)Nc2ccc3c(C(F)(F)F)cc(=O)oc3c2)n1	11	0.4	-3	i	0.72	6	16	1.3	4.5
C=CCn1c(O)c(C(CC)=Nc2ccccc2NC(C)=O)c(=O)[nH]c1=O	-7	-0.1	-14	nt	0.71	nt	nt	nt	3.9
O=C(c1ccc2c(c1)ncn2C1CCCCC1)N1CCC2(CC1)OCCO2	nt	nt	-5	nt	0.7	nt	nt	nt	-1.3
CC(=O)c1cn(CCCOc2ccccc2)c2ccccc12	-5	-4.3	-2	i	0.7	-34	-52	-15	4.4
CCCC[N+]1(C)[C@@H]2CC(OC(=O)[C@H](CO)c3ccccc3)C[C@H]1[C@@H]1O[C@@H]12 (some centres undefined)	-3	-0.4	-7	i	nt	nt	nt	nt	1.8
Fc1ccc2c(c1)nnn2C1CCN(Cc2nnnn2C2CCCCC2)CC1	-9	1.4	11	nt	0.69	nt	nt	nt	4.9
O=C(O)C1CSC(c2cccnc2)N1 (centres undefined)	5	-0.2	-3	nt	0.76	nt	nt	nt	4.8
Oc1ccc(O)c2c1C1(Cl)C(Cl)=C(Cl)C2(Cl)C1(Cl)Cl	10	-1.5	nt	i	0.53	-58	-80	-18	2.8
CN1CN=C(N[N+](=O)[O-])N(Cc2ccco2)C1	-2	-3.2	-11	i	0.69	nt	nt	nt	-0.8
COc1ccc(C2NCc3ccccc3-n3cccc32)cc1 (centres undefined)	7	0.3	nt	i	0.69	0	-1	0.2	4.4
Cc1nc2cc(C(F)(F)F)ccc2n1C1CCN(Cc2nnnn2Cc2ccc3c(c2)OCO3)CC1	-6	1.8	-14	nt	0.69	nt	nt	nt	2.8

These rows are one share of the data. The share of hits here may be higher or lower than overall.
